PV pol inh: poliovirus RNA polymerase inhibition; % elongation, % (compound at 16.7 µg/mL); poliovirus polymerase elongation, fluorescence polarization; active compounds read low; P03300; 0.66% of 150,000 active; in the data active = % elongation below about 90%; also: some results filed as inactive read as strong as hits
Target sequence (P03300 1749-2209 limits assumed): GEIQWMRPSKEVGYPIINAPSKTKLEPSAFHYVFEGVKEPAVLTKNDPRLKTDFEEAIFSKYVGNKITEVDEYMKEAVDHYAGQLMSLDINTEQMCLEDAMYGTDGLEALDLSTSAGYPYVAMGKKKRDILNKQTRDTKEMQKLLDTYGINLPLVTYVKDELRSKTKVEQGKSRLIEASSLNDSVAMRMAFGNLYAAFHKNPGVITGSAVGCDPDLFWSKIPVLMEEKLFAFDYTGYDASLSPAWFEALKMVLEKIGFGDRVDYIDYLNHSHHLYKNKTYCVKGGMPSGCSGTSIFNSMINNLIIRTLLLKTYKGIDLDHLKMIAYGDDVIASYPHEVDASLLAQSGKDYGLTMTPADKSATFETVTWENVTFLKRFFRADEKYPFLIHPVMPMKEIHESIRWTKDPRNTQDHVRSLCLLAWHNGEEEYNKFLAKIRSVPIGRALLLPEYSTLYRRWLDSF
PV pol inh intensity: recorded beside PV pol inh, whose call it bears; % elongation; measured here: total intensity read-out; formula for this scale not given here;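 total fluorescence in place of polarization; lower means less elongation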
Starred values were filed as active, the others as inactive.

1) Cc1ccc(N(C)C(=O)C2CCN(S(=O)(=O)c3c(C)noc3/C=C/c3c(C)cc(C)cc3C)CC2)cc1
  PV pol inh: 100.0	PV pol inh intensity: 109.0
2) COC(=O)c1nnn(CC(=O)NC(=O)Nc2ccccc2F)c1C(=O)OC
  PV pol inh: 107.0	PV pol inh intensity: 111.0
3) Cc1ccc(-n2ncc3c(NC4CCCCCC4)ncnc32)cc1
  PV pol inh: 102.0	PV pol inh intensity: 108.0
4) CC1=C(c2ccc(C(C)C)cc2)S(=O)(=O)NC1=NCCCN1CCN(c2ccccc2F)CC1
  PV pol inh: 107.0	PV pol inh intensity: 112.0
5) O=C(CSc1nc2ccccc2n1Cc1ccccc1)NCc1ccccc1
  PV pol inh: 108.0	PV pol inh intensity: 108.0
6) CCc1ccc(CNC(=O)c2c(C)oc3ncn(CC(C)C)c(=O)c23)cc1
  PV pol inh: 105.0	PV pol inh intensity: 110.0
7) COc1cccc(CNC(=O)CN2C(=O)COc3ccc(S(=O)(=O)N4CCOCC4)cc32)c1
  PV pol inh: 118.0	PV pol inh intensity: 125.0
8) Cc1ccc(S(=O)(=O)Cc2nc(-c3ccc(C(=O)NCc4ccccc4F)cc3)oc2C)cc1
  PV pol inh: 101.0	PV pol inh intensity: 96.0
9) Cc1ccc(CNC(=O)C2CCC(CNS(=O)(=O)c3ccc(C)cc3)CC2)cc1 (stereo not given)
  PV pol inh: 109.0	PV pol inh intensity: 109.0
10) COc1ccc(Br)cc1CNC(=O)CCc1cn(Cc2ccc(C)cc2)c2ccccc12
  PV pol inh: 112.0	PV pol inh intensity: 113.0
11) COc1ccc(NC(=O)Cn2c(=O)n(-c3cccc(C)c3)c(=O)c3c2c2cc(C)ccc2n3C)cc1OC
  PV pol inh: 110.0	PV pol inh intensity: 112.0
12) Cc1cccc(CN2C(=O)c3ccccc3S(=O)(=O)c3ccc(C(=O)NC4CCCCC4)cc32)c1
  PV pol inh: 107.0	PV pol inh intensity: 110.0
13) O=C(COC(=O)c1cc(-c2ccccc2)nc2c(Cl)cccc12)c1ccc(F)cc1
  PV pol inh: 103.0	PV pol inh intensity: 109.0
14) CCCCN(C)CCNC(=O)c1cc2c(=O)n(C)c3ccccc3c2n1C
  PV pol inh: 106.0	PV pol inh intensity: 107.0
15) CCOC(=O)c1ccccc1NC(=O)N(Cc1ccc(CC)cc1)Cc1cn[nH]c1-c1ccc(OC)cc1
  PV pol inh: 115.0	PV pol inh intensity: 119.0
16) O=S(=O)(c1ccc(-c2cc(C(F)(F)F)on2)s1)N1CCN(c2ccccc2F)CC1
  PV pol inh: 103.0	PV pol inh intensity: 106.0
17) COc1ccc(N2CCN(S(=O)(=O)c3ccc4c(c3)CCCN4C(C)=O)CC2)cc1
  PV pol inh: 111.0	PV pol inh intensity: 111.0
18) Cc1ccc2cccc(NC(=O)c3ccc(-c4cccc([N+](=O)[O-])c4)o3)c2n1
  PV pol inh: 102.0	PV pol inh intensity: 103.0
19) Cc1ccc(Cn2ccc(NC(=O)c3cc(-c4ccc(Cl)c(Cl)c4)on3)n2)cc1
  PV pol inh: 104.0	PV pol inh intensity: 109.0
20) Cc1cccc(NC(=O)Cn2c(=O)oc3cc(S(=O)(=O)N4CCCCCC4)ccc32)c1
  PV pol inh: 99.0	PV pol inh intensity: 102.0
21) COc1ccc(NC(=O)NC(C)c2c(-n3cccc3)sc3c2CCN(C)C3)c(OC)c1 (stereo not given)
  PV pol inh: 106.0	PV pol inh intensity: 110.0
22) CCOC(=O)c1cc(NC(=O)c2ccc(OC)cc2)c(=O)n2c1oc1ccc(Cl)cc12
  PV pol inh: 104.0	PV pol inh intensity: 107.0
23) CCc1ccc(Nc2sc(C(=O)c3ccccc3)c(N)c2S(C)(=O)=O)cc1
  PV pol inh: 107.0	PV pol inh intensity: 112.0
24) O=C(C1CCCCC1)N(Cc1cccnc1)c1nc2ccc(F)cc2s1
  PV pol inh: 107.0	PV pol inh intensity: 108.0
25) CC(=O)c1ccc(NC(=O)c2cc3sccc3n2Cc2ccc(Cl)cc2)cc1
  PV pol inh: 105.0	PV pol inh intensity: 111.0

26) Cc1cc2oc(C(=O)Nc3c(C(=O)Nc4ccccc4)oc4ccccc34)cc(=O)c2cc1C
  PV pol inh: 109.0	PV pol inh intensity: 95.0
27) COc1ccc2c(Sc3ccccc3)c(C(=O)NCc3cccc(OC)c3OC)[nH]c2c1
  PV pol inh: 108.0	PV pol inh intensity: 112.0
28) COc1ccc(NS(=O)(=O)c2cc3[nH]c(=O)c(=O)[nH]c3cc2C)cc1OC
  PV pol inh: 100.0	PV pol inh intensity: 102.0
29) CCOC(=O)Cc1ccc(NC(=O)N(Cc2ccc(OC)cc2)C2CCN(C(C)=O)CC2)cc1
  PV pol inh: 113.0	PV pol inh intensity: 115.0
30) CCCCN(C)C(=O)c1ccc2c(=O)n3nc(Nc4cc(C)ccc4C)sc3nc2c1
  PV pol inh: 106.0	PV pol inh intensity: 105.0
31) CCC1CCc2nc3sc(C(=O)Nc4cccc(F)c4)c(N)c3cc2C1 (stereo not given)
  PV pol inh: 112.0	PV pol inh intensity: 112.0
32) CCOc1cccc2sc(N3CCN(C(=O)C(C)(C)C)CC3)nc12
  PV pol inh: 112.0	PV pol inh intensity: 110.0
33) CCCn1c(=O)c2sccc2n2c(CCCC(=O)Nc3ccc(Oc4ccccc4)cc3)nnc12
  PV pol inh: 124.0	PV pol inh intensity: 112.0
34) COc1cccc(CNC(=O)C2CCCN(S(=O)(=O)c3ccc4c(ccn4C)c3)C2)c1 (stereo not given)
  PV pol inh: 109.0	PV pol inh intensity: 96.0
35) CC1CN(C(=O)N2CCC(C(=O)NCc3cccs3)CC2)c2cc(Cl)ccc2O1 (stereo not given)
  PV pol inh: 103.0	PV pol inh intensity: 105.0
36) CCCCc1ccc(NC(=O)Cn2cnc3c(oc4ccccc43)c2=O)cc1
  PV pol inh: 111.0	PV pol inh intensity: 107.0
37) Cc1ccccc1C(=O)NCc1ccc2c(c1)CCN2C(=O)c1ccccc1
  PV pol inh: 112.0	PV pol inh intensity: 110.0
38) COc1cccc(CNC(=O)Cn2nc(-c3ccc(Cl)cc3)ccc2=O)c1
  PV pol inh: 119.0	PV pol inh intensity: 114.0
39) O=c1oc2ccc(Cl)cc2cc1-c1cn2c(n1)sc1ccccc12
  PV pol inh: 101.0	PV pol inh intensity: 97.0
40) O=C(Cn1ncc2ccsc2c1=O)N1CCN(c2ccc(Cl)cc2)CC1
  PV pol inh: 101.0	PV pol inh intensity: 108.0
41) COc1ccc(CNC(=O)CSc2c3c(nc4ccc(Cl)cc24)CCCC3)cc1
  PV pol inh: 106.0	PV pol inh intensity: 107.0
42) O=C(CN(c1cccc(C(F)(F)F)c1)S(=O)(=O)c1ccccc1)Nc1cccc(Cl)c1
  PV pol inh: 106.0	PV pol inh intensity: 102.0
43) CCC(CC)C(=O)Nc1ccc(C(=O)OCc2cc(=O)n3nc(C4CC4)sc3n2)cc1
  PV pol inh: 104.0	PV pol inh intensity: 110.0
44) COc1cccc(NC(=O)CSc2c(C)cnc3c2c(=O)n(C)c(=O)n3C)c1
  PV pol inh: 104.0	PV pol inh intensity: 100.0
45) CCOc1ccccc1NC(=O)Cn1c(=O)n(-c2cccc(C)c2)c(=O)c2c1c1cc(OC)ccc1n2C
  PV pol inh: 108.0	PV pol inh intensity: 111.0
46) CC(C)OCCCNC(=O)Cn1c(-c2cccs2)cc2cc(F)ccc21
  PV pol inh: 106.0	PV pol inh intensity: 116.0
47) COc1ccc(CN(C(=O)c2ccc(OCC(C)C)cc2)C2CCS(=O)(=O)C2)cc1 (stereo not given)
  PV pol inh: 102.0	PV pol inh intensity: 99.0
48) CCCCOC(=O)c1ccc(NC(=O)c2cc3c(=O)n4cccc(C)c4nc3n2C)cc1
  PV pol inh: 107.0	PV pol inh intensity: 115.0
49) CCc1nn2c(=O)c(S(=O)(=O)Nc3cccc(F)c3)c(C)nc2s1
  PV pol inh: 104.0	PV pol inh intensity: 104.0
50) CC(C)Cc1nn2c(=O)cc(COC(=O)c3cccc(NC(=O)c4cccs4)c3)nc2s1
  PV pol inh: 108.0	PV pol inh intensity: 106.0

51) COc1cc2c(cc1OC)C(COc1ccccc1OC)N(C(=O)c1ccccc1OC)CC2 (stereo not given)
  PV pol inh: 111.0	PV pol inh intensity: 102.0
52) Cc1[nH]c2ccc(C(=O)NCCCN3CCCCC3)cc2c1C
  PV pol inh: 106.0	PV pol inh intensity: 102.0
53) CCOc1ccc(S(=O)(=O)N(CC(=O)NCCc2ccc(OC)c(OC)c2)c2ccccc2)cc1
  PV pol inh: 107.0	PV pol inh intensity: 110.0
54) CC(C)Cn1c(=O)c2ccccc2n2c(CCC(=O)N3CCN(c4ccccc4F)CC3)nnc12
  PV pol inh: 108.0	PV pol inh intensity: 104.0
55) COc1cccc(-c2nnc3sc(CN4CCCCC4)cn23)c1
  PV pol inh: 106.0	PV pol inh intensity: 107.0
56) Cc1nn(-c2ccccc2)c(OC(=O)c2ccc(Br)cc2)c1S(=O)(=O)c1ccccc1
  PV pol inh: 107.0	PV pol inh intensity: 103.0
57) Cc1oc2ncnc(N3CCCCC3)c2c1C(=O)NCC1CCN(Cc2ccccc2F)CC1
  PV pol inh: 107.0	PV pol inh intensity: 112.0
58) Cc1cc(C)c(NC(=O)C(C)n2nnc3sc(-c4ccccc4)cc3c2=O)c(C)c1 (stereo not given)
  PV pol inh: 112.0	PV pol inh intensity: 99.0
59) CC(C)NC(=O)c1ccccc1NC(=O)c1nsc2ccccc12
  PV pol inh: 107.0	PV pol inh intensity: 104.0
60) Cc1ccc(C)c(S(=O)(=O)c2nnn3c2nc(Nc2ccc(C)c(C)c2)c2sccc23)c1
  PV pol inh: 100.0	PV pol inh intensity: 101.0
61) Cc1ccc(NC(=O)CSc2nc3ccccc3n2CC(=O)N(C)C2CCCCC2)cc1C
  PV pol inh: 109.0	PV pol inh intensity: 110.0
62) CCOC(=O)N1CCc2c(sc3c2c(=O)n(Cc2ccccc2)c(=O)n3CC(=O)Nc2ccc(C)cc2C)C1
  PV pol inh: 108.0	PV pol inh intensity: 110.0
63) CCCCc1nn2c(=O)cc(COC(=O)COc3ccc(C)cc3)nc2s1
  PV pol inh: 108.0	PV pol inh intensity: 112.0
64) Cc1cccc(N2C(=O)CSC23C(=O)N(CC(=O)NCCc2ccccc2)c2ccccc23)c1 (stereo not given)
  PV pol inh: 107.0	PV pol inh intensity: 104.0
65) Cc1ccc(C(=O)c2oc3ccccc3c2NC(=O)COc2ccc(Cl)c(C)c2)cc1
  PV pol inh: 108.0	PV pol inh intensity: 111.0
66) COc1ccc(NCc2cccn2-c2nnc(N3CCOCC3)s2)cc1OC
  PV pol inh: 107.0	PV pol inh intensity: 111.0
67) CCc1ccccc1-n1c(C)nc2cc(C(=O)NCCc3ccc(Cl)cc3)ccc21
  PV pol inh: 107.0	PV pol inh intensity: 107.0
68) CCOc1ccc(CNC(=O)Cn2ccc3cc(S(=O)(=O)N4CCCCCC4)ccc32)cc1
  PV pol inh: 107.0	PV pol inh intensity: 99.0
69) O=C(c1ccc(Br)s1)N(Cc1cccnc1)c1nc2ccc(F)cc2s1
  PV pol inh: 102.0	PV pol inh intensity: 104.0
70) O=C(COc1ccccc1Cl)Nc1nnc(S(=O)(=O)N2CCCCCC2)s1
  PV pol inh: 110.0	PV pol inh intensity: 95.0
71) Cc1cccc(C(=O)Nc2ccc3oc(-c4cccc5c(Br)cccc45)nc3c2)c1
  PV pol inh: 105.0	PV pol inh intensity: 113.0
72) CCc1cccc(C)c1NC(=O)Cn1nc(C)n2cccc2c1=O
  PV pol inh: 108.0	PV pol inh intensity: 106.0
73) CCOc1ccc(-c2c(C)nn3c(C)c(C(=O)Nc4ccccc4C(=O)OC)cnc23)cc1OCC
  PV pol inh: 108.0	PV pol inh intensity: 111.0
74) CCOC(=O)c1ccn(-c2nc(-c3cccc(OC)c3)cc(C(F)(F)F)n2)n1
  PV pol inh: 101.0	PV pol inh intensity: 99.0
75) COc1ccc(NC(=O)C2CCCN(S(=O)(=O)c3ccc4[nH]c(=O)ccc4c3)C2)cc1Cl (stereo not given)
  PV pol inh: 107.0	PV pol inh intensity: 116.0

76) Cc1cc(C)cc(NC(=O)C2CCC(CNS(=O)(=O)c3ccc4c(c3)C(C)(C)C(=O)N4C)CC2)c1 (stereo not given)
  PV pol inh: 104.0	PV pol inh intensity: 98.0
77) CC(=O)c1ccc(NC(=O)CSc2nc(=O)n(Cc3ccccn3)c3c2CCC3)cc1
  PV pol inh: 103.0	PV pol inh intensity: 104.0
78) COc1ccc(C2CC(=O)N(Cc3ccccc3)c3c2c(C)nn3-c2nc(C)cc(C)n2)c(OC)c1 (stereo not given)
  PV pol inh: 107.0	PV pol inh intensity: 102.0
79) Cc1ccc(Nc2c(-c3cccc(Cl)c3)nc3cccc(C)n23)cc1
  PV pol inh: 107.0	PV pol inh intensity: 104.0
80) CCOc1ccc(N(C)S(=O)(=O)c2ccc3[nH]cc(C(=O)NCc4ccccc4)c(=O)c3c2)cc1
  PV pol inh: 110.0	PV pol inh intensity: 108.0
81) CCOc1ccc(NC(=O)c2cc(S(=O)(=O)N3CCCCCC3)cn2C)cc1
  PV pol inh: 112.0	PV pol inh intensity: 106.0
82) COc1ccc(CCNC(=O)C2CC(=O)N(CCc3ccccc3)C2)cc1OC (stereo not given)
  PV pol inh: 114.0	PV pol inh intensity: 109.0
83) CN(C)CCNC(=O)C(=O)NCC(c1cccnc1)N1CCN(c2ccccc2)CC1 (stereo not given)
  PV pol inh: 108.0	PV pol inh intensity: 103.0
84) CCCN(Cc1cccs1)C(=O)Nc1ccc(Br)c(C)c1
  PV pol inh: 107.0	PV pol inh intensity: 110.0
85) CCOC(=O)c1sc(NC(=O)c2nc(SC)ncc2Cl)c(C(=O)OCC)c1C
  PV pol inh: 123.0	PV pol inh intensity: 122.0
86) COc1ccc(-n2c(=O)c3sc4ccccc4c3n(CC(=O)NCc3ccccc3)c2=O)cc1
  PV pol inh: 109.0	PV pol inh intensity: 113.0
87) COc1ccc(S(=O)(=O)NCCc2nnc3ccc(SCC(=O)Nc4ccc(C(F)(F)F)cc4)nn23)cc1
  PV pol inh: 104.0	PV pol inh intensity: 101.0
88) CCOc1ccc(-n2c(SCC(=O)N3CCCCC3)nc3c([nH]c4ccccc43)c2=O)cc1
  PV pol inh: 112.0	PV pol inh intensity: 109.0

High-throughput results deposited in PubChem by ICCB-Longwood Screening Facility, Harvard Medical School.

Not all compounds are listed; count on the stated rates, not on these rows.
